Bioassay records (PubChem BioAssay)
H5N1 antiviral: antiviral screen in MDCK cells, H5N1 avian flu | cytopathic effect, luminescence, 72 h; hits give high values; no value below 0 was filed and about half of the inactive calls have no number; reference of the scale not given here | inhibition, % at 50 µM | 96,000 compounds, 0.07% hits; in the data active = inhibition above about 25%
Starred values were filed as active, the others as inactive; i = inactive. Some of the compounds tested; count on the stated rates, not on these rows.

SMILES	H5N1 antiviral
CC12CN(C(=O)c3ccc(Cl)cc3)C3(C#N)CC1CCC23C (configuration not stated)	0.6
CC(=O)N1CCc2cc3nc(C)cc(C)c3cc21	1.0
O=C(COC(=O)CNS(=O)(=O)c1ccccc1)Nc1ccc(Cl)cn1	0.7
CCOC(=O)C1CCCCN1Cc1ccc(F)cc1 (configuration not stated)	0.0
O=C1CC(c2ccc(S(=O)(=O)NCc3ccccc3)cc2)CN1 (configuration not stated)	1.7
CCCCn1nnnc1NCc1cccs1	1.4
CN(C)CCNc1ncnc2ccccc12	1.0
CC(C)(CO)NCc1ccccc1OCC(=O)Nc1ccccc1	i
CCN(CC)CCN1C(=O)C(=O)/C(=C(/O)c2ccccc2)C1c1ccccc1F (configuration not stated)	i
CCN(CC)CCN1C(=O)c2ccccc2NC1c1cc(OC)c(OC)c(OC)c1 (configuration not stated)	i
CC(C)c1ccc(NC(=O)C2CCCCC2C(=O)O)cc1 (configuration not stated)	0.3
O=C(CC(O)(C(F)(F)F)C(F)(F)F)Nc1ccc(Cl)c(Cl)c1	0.6
O=C(CN(Cc1cccs1)C(=O)CNS(=O)(=O)c1ccc(F)cc1)NCc1ccco1	1.8
O=C(/C(=C/O)N=Nc1ccccc1)c1ccncc1	0.5
CCCCNC(=O)CSc1nc2ccsc2c(=O)n1C1CCN(C(=O)OCC)CC1	i
CCOC(=O)N1CCN(C(=O)c2ccc3nc(N4CCCCC4)sc3c2)CC1	i
Cc1ccc(C(=O)CC(=O)c2cc(Cl)ccc2O)cc1	i
CCOC(=O)C1CCN(CC(O)COc2ccc(C(C)=O)cc2)CC1 (configuration not stated)	i
CC(C)(CN=C1NS(=O)(=O)c2ccccc21)CNC(=O)CN1C(=O)c2ccccc2C1=O	i
Cc1ccccc1-n1c(=O)cc(N2CCN(C(=O)c3ccco3)CC2)[nH]c1=O	0.1
C=CCSc1n[nH]c(-c2ccccc2)n1	0.5
CC(=O)c1cccc(N(CC(=O)Nc2cccnc2)S(C)(=O)=O)c1	0.9
CC(C)COc1ccc(C(=O)Nc2ccc(NC(=O)c3ccco3)c(Cl)c2)cc1	0.1
C=CCSc1nc2sc3c(c2c(=O)n1CC)CCc1ccccc1-3	1.8
Cc1ccc(C(=O)N(CN2CCCC2=O)c2ccccc2)cc1C	0.2

Continued (three carried over from the part before).
SMILES	H5N1 antiviral
CC(C)COc1ccc(C(=O)Nc2ccc(NC(=O)c3ccco3)c(Cl)c2)cc1	0.1
C=CCSc1nc2sc3c(c2c(=O)n1CC)CCc1ccccc1-3	1.8
Cc1ccc(C(=O)N(CN2CCCC2=O)c2ccccc2)cc1C	0.2
CCOC(=O)c1cc2c(n(-c3ccccc3)c1=O)CC(C)(C)CC2=O	0.2
N#CC1=C(Nc2ccccc2)SC=C(c2ccc(Br)cc2)N=C1N1CCOCC1	i
O=C(Oc1ccccc1-c1nnco1)c1ccccc1	0.7
c1ccc(Cc2nnc(-c3ccccc3)o2)cc1	i
CC(C)Oc1ccc(Cc2c(O)nc(NCCCN(C)C)[nH]c2=O)cc1	i
Cc1cccc(C(=O)N2CCN(c3ccc(C(F)(F)F)cn3)CC2)c1C	0.7
CCOC(=O)c1ccc(NC(=O)CCc2nc(-c3ccccc3Cl)no2)cc1	i
CC(=O)N[C@H]1C[C@@H]1c1ccccc1	0.1
CCCc1cc(=O)n2c([nH]c3ccccc32)c1C#N	i
Cc1nn(-c2ccccc2)c(C)c1CCC(=O)O	i
COc1ccc(-c2nc(C#N)c(N3CCOCC3)o2)cc1OC	1.4
Cc1ccc(NC(=O)CCSCCC(=O)Nc2ccc(C)c(C)c2)cc1C	i
Cc1sc2nc(C)n(/N=C/c3ccccc3O)c(=O)c2c1C	0.1
CC(=O)Nc1sc(NC(=O)c2ccccc2)nc1-c1cccs1	i
O=C(CCNc1cc(Cl)cc(Cl)c1)c1cccs1	i
COc1ccc(Cn2c(SCc3cc(C)ccc3C)nc3cc(OC)c(OC)cc3c2=N)cc1	i
CCOc1ccc(CNC(=O)CCCOc2cc(=O)n(C)c3ccccc23)cc1	i
CCN(CC)CCOc1ccc2c(c1)C(=NO)c1cc(OCCN(CC)CC)ccc1-2	i
CCN1C=C(Cc2cccs2)C2=C(C1)C(c1cccs1)C(C#N)=C(N)O2 (configuration not stated)	1.4
CCN(CC)S(=O)(=O)c1ccc(S(=O)(=O)N2CCCC2C(=O)O)cc1 (configuration not stated)	i
Cc1ccc(N2CCN(c3ccc(C)cc3)C(CC(=O)O)C2=O)cc1 (configuration not stated)	i
CCC(=O)Nc1sc(C(=O)OC)c(C)c1C(=O)OC	1.1
CCOc1ccc(C(=O)NCC(=O)OCC(=O)N2CCC(C)CC2)cc1	0.3
O=C(Cc1ccccc1)Nc1cccc(-c2nc3ncccc3o2)c1	i
Cc1ccc(NC(=O)CCC(=O)O)cc1F	i

Remaining list, next part
SMILES	H5N1 antiviral
COc1ccc(OC)c(N(CC(=O)N2CCCC2)S(=O)(=O)c2ccc(OC)c(OC)c2)c1	0.6
COc1ccc(OC)c(C2NC(=O)c3sc(=S)n(-c4ccccc4)c3N2)c1 (configuration not stated)	0.9
N#Cc1cccc(C(c2nnnn2Cc2ccccc2)N2CCCC2)c1 (configuration not stated)	2.3
CCCn1c(SCC(=O)NC2CCCCC2C)n[nH]c1=O (configuration not stated)	0.5
Cc1ccc(-n2nc(C)c(NS(=O)(=O)c3ccccc3)c2C)cc1C	i
CCCCN=C(C)c1c(O)c2ccccc2oc1=O	i
CCN1CCN(C(=O)c2ccccc2N(Cc2ccccc2)S(=O)(=O)c2ccc(C)cc2)CC1	i
O=C(CCCCCn1c(=S)[nH]c2ccc(Br)cc2c1=O)NCC1CCCO1 (configuration not stated)	0.2
CCOC(=O)C1CCCN(c2c(N3CCOCC3)c(=O)c2=O)C1 (configuration not stated)	0.8
O=C(CN1CCN(Cc2ccccc2Cl)C1=O)N1CCCCCC1	i
CCc1nn2c(N3CCOCC3)cc(C)nc2c1-c1ccc(F)cc1	0.5
O=C(Nc1ccc2c(c1)OCCO2)c1ccncc1	i
O=C1c2ccccc2C(=O)N1CC1c2ccccc2CCN1S(=O)(=O)c1cnc[nH]1 (configuration not stated)	i
COc1ccc(CCN2C(=O)CC(Sc3ncccc3C(=O)O)C2=O)cc1OC (configuration not stated)	0.3
Cn1c(=O)[nH]c(=O)c2c1nc(N1CCN(CCO)CC1)n2CCSc1nc2ccccc2s1	0.8
Nc1cc(=O)nc(SCC(=O)NCc2ccccc2)n1CCc1ccccc1	i
CC(=O)Nc1cccc2c1C(=O)NC2=O	i
CCOC(=O)N1CCC(N2CC34C=CC(O3)C(C(=O)O)C4C2=O)CC1 (configuration not stated)	0.3
O=c1[nH]c2cc3c(cc2cc1CN(CC1CCCO1)S(=O)(=O)c1ccc(Cl)cc1)OCCO3 (configuration not stated)	0.8
Cn1c(=O)c2c(ncn2CC(COCc2ccc(Cl)cc2)OCc2ccc(Cl)cc2)n(C)c1=O (configuration not stated)	i
CCn1nnnc1SCC(=O)Nc1sc(C)c(C)c1C#N	i
C=CCSc1ncccc1C(=O)O	0.5
CCOC(=O)c1cnn(CCOC(=O)c2cccs2)c1NC(=O)c1cccs1	1.8
CCOC(=O)CN1C(=O)C(O)(c2c(C)[nH]c3ccccc23)c2ccccc21 (configuration not stated)	i
CC1(C)CC(=O)c2cc(C(=O)O)c(=O)n(-c3ccccc3)c2C1	i

Further results follow:
SMILES	H5N1 antiviral
Cc1cc(C)c2nc(N3CCCC(C(=O)NCCCN4CCOCC4)C3)sc2c1 (configuration not stated)	i
Cc1ccccc1N/C(SCc1ccc(Cl)cc1)=C(/C#N)C(=O)NCc1ccco1	0.3
O=C(CCCC(=O)N(CC(=O)NC1CCCC1)Cc1ccccc1Cl)Nc1ccccn1	0.9
COc1ccc(/C(N)=C/C(=O)C(C)(C)C)cc1	i
c1ccc(Cn2nnnc2C(c2cccnc2)N2CCN(C3CCCCC3)CC2)cc1 (configuration not stated)	0.6
Oc1cccc(C(=S)N2CCN(Cc3ccccc3)CC2)c1	i
CSC1=NCCN1C(=O)c1ccc(S(=O)(=O)N2CCCC2)cc1	1.8
O=C(Nc1ccccc1)N(Cc1ccccc1)Cc1ccccc1	i
CC1=C(SCCC#N)S/C(=C2\SC(C)=C(SCCC#N)S2)S1	1.3
CC(=O)N1CCc2cc(S(=O)(=O)CCC(=O)NCc3ccc4c(c3)OCO4)ccc21	0.6
Cc1cc(=O)[nH]c(SCC(=O)c2ccc(C(C)C)cc2)n1	1.0
Cc1cc(C)c(NC(=O)COc2ccccc2C(=O)Nc2ccc3c(c2)oc2ccccc23)c(C)c1	i
Cc1c(N(C(=O)c2cc(=O)[nH]c3ccccc23)C(C)C)c(=O)n(-c2ccccc2)n1C	0.8
COc1ccccc1CN(C)C(=O)C1COc2ccccc2O1 (configuration not stated)	i
COc1ccc(-n2c(N)c(C(=O)NCc3ccco3)sc2=S)cc1	5.5
CC(=O)c1ccc(NC(=O)CSc2nnc(NC(=O)CN3CCOCC3)s2)cc1	1.0
CN(C)C(=O)N1CCC(C(=O)NCc2ccccc2)CC1	i
CCOC(=O)c1c(C)n(C)c2c(C)cc(O)c(OC(=O)CC)c12	0.1
CCC(=O)N1N=C2C3CCN(CC3)C2C1c1ccccc1 (configuration not stated)	0.3
CCC(C)NC(=O)CCCc1ccccc1 (configuration not stated)	0.0
COC(=O)c1ccc(Cl)c(NC(=O)CN2CCN(C)CC2)c1	1.7
CCOc1ccc(C(=O)NC(=S)Nc2ccccn2)cc1[N+](=O)[O-]	i
COCC(C)N=Cc1c(O)[nH]c2ccccc12 (configuration not stated)	i
CCOC(=O)c1ccc(N2C(=O)CC(C(=O)OC)=C2C)cc1	3.0
CC(C)NS(=O)(=O)c1ccc(OCC(=O)N2CCCC2)c(Cl)c1	0.3

No new results follow: an excerpt of the list.
SMILES	H5N1 antiviral
Cc1cc(C)c2nc(N3CCCC(C(=O)NCCCN4CCOCC4)C3)sc2c1 (configuration not stated)	i
Cc1ccccc1N/C(SCc1ccc(Cl)cc1)=C(/C#N)C(=O)NCc1ccco1	0.3
O=C(CCCC(=O)N(CC(=O)NC1CCCC1)Cc1ccccc1Cl)Nc1ccccn1	0.9

Next section:
SMILES	H5N1 antiviral
Cc1ccnc(NC(=O)c2ccc(COc3ccc(Cl)cc3)o2)c1	i
Cc1oc(-c2ccccc2F)nc1CN1CCC(C(=O)NC2CCCc3ccccc32)CC1 (configuration not stated)	i
O=C1OCCN1CCN(CN1C(=O)CCC1=O)CN1C(=O)CCC1=O	i
CCOc1ccccc1N1CCN(C(=O)Nc2ccc(F)c(Cl)c2)CC1	3.0
O=C(NNC(=O)c1ccccc1Br)c1ccc(Cl)cc1	i
CC(=O)Nc1cccc(NC(=O)CSc2nc(C)c(C)c(C)c2C#N)c1	0.4
Cc1onc(-c2ccccc2)c1C(=O)Nc1cccc(C#N)c1	1.4
Cc1onc(-c2ccccc2Cl)c1C(=O)Nc1ccc(S(=O)(=O)NCC2CCCO2)cc1 (configuration not stated)	0.8
CCCC(=O)Nc1cccc(NC(=O)c2ccccc2Br)c1	i
O=C(CCC(=O)OCC(=O)c1cccc([N+](=O)[O-])c1)Nc1ccccc1Cl	0.4
COc1cc(NC(=O)c2cc3c(=O)n(C)c4ccccc4c3n2C)cc(OC)c1OC	0.2
COc1ccccc1NC(=O)c1ccc(-c2ccc(Br)cc2)o1	i
CN(CC(=O)N1CC(=O)N(CCc2ccccc2)C(=O)C1)S(=O)(=O)c1cccc2nsnc12	i
CCC(C)(C(=O)NC1CCCC1)N(C(=O)CNC(C)=O)c1ccc(C)cc1 (configuration not stated)	0.6
O=C(CC1SCCNC1=O)Nc1cccc(C(F)(F)F)c1 (configuration not stated)	i
CCC(C)(C)n1nnnc1C(c1cc2cc3c(cc2[nH]c1=O)OCO3)N1CCCCC1 (configuration not stated)	i
CCOC(=O)Cn1nc(-c2ccccc2)c2ccccc2c1=O	1.4
CCOc1ccc(NC(=O)CSc2nnc(C)n2CCCOC)cc1	i
Cc1nc2c(C(=O)N3CCCCC3)cnn2c(C)c1Cc1ccccc1F	3.9
COc1ccc2c(c1)[nH]c(=O)c1sc3ccccc3c12	2.3
Cc1cc2nn(-c3ccccc3)nc2cc1NC(=O)c1cccs1	i
CCCN(CC1CC1)C(=O)CSc1ncnc2sc(C)c(C)c12	0.6
Cn1cnnc1SCC(=O)c1ccc2c(c1)OCO2	i
CC1CCCCN1C(=O)Cn1nnc(-c2cccnc2)n1 (configuration not stated)	i
Cc1cc(C(F)F)n2nc(C(=O)Nc3sc4c(c3C#N)CCC(C)C4)nc2n1 (configuration not stated)	i

Entries shown so far that have bromine, in the order listed:
SMILES	H5N1 antiviral
N#CC1=C(Nc2ccccc2)SC=C(c2ccc(Br)cc2)N=C1N1CCOCC1	i
O=C(CCCCCn1c(=S)[nH]c2ccc(Br)cc2c1=O)NCC1CCCO1 (configuration not stated)	0.2
O=C(NNC(=O)c1ccccc1Br)c1ccc(Cl)cc1	i
CCCC(=O)Nc1cccc(NC(=O)c2ccccc2Br)c1	i
COc1ccccc1NC(=O)c1ccc(-c2ccc(Br)cc2)o1	i

(listing goes on)
SMILES	H5N1 antiviral
CCN=C(NCC)SC1CC(=O)N(c2ccc(OC)cc2)C1=O (configuration not stated)	i
O=C1CC(c2c[nH]c3ccccc23)C(=O)N1 (configuration not stated)	i
CCCCCCNc1nc(NCc2ccco2)nc(OCC)n1	0.2
O=C(CN(Cc1ccc2c(c1)OCO2)C(=O)CNC(=O)c1ccco1)NC1CCCCC1	i
CC1(C)N=C(/C=N/O)CN1O	0.2
CC(=O)Nc1cccc2c1OCCO2	0.2
NC(=O)c1nn(-c2ccccc2)c(=O)cc1O	i
CC(C)(/C=N/O)/[N+]([O-])=C/c1ccccc1C(F)(F)F	i
C=CCNC(=O)C(C#N)c1nc2ccccc2nc1N1CCCCCC1 (configuration not stated)	i
O=C(CN1C(=O)CCSc2ccccc21)N1CCC2(CC1)OCCO2	i

Grouped by structure: the compounds so far with a nitro group on carbon (2)
SMILES	H5N1 antiviral
CCOc1ccc(C(=O)NC(=S)Nc2ccccn2)cc1[N+](=O)[O-]	i
O=C(CCC(=O)OCC(=O)c1cccc([N+](=O)[O-])c1)Nc1ccccc1Cl	0.4
